From PubChem BioAssay
Mtb bLac sens: beta-lactam sensitization of Mtb H37Rv | inhibition, % at 25 µM | 330,000 compounds, 0.27% hits | M. tuberculosis H37Rv growth with meropenem, percent inhibition; hits of this screen are not shown here;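 active means about 74% or more and at least 40 points above the plate without the antibiotic, then above 30% in a dose series; inconclusive means first-round hits that could not be retested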;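 further: growth measured after seven days incubation then overnight dye step; 0% = bacteria only wells and 100% = bacteria with antibiotic; twin plates without the antibiotic show which effects depend on it; some results filed as inactive read as strong as hits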
YopH PTP inh: inhibitors of Yersinia enterocolitica YopH tyrosine phosphatase | fluorescence Ex485/Em525 | inhibition, %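 (about 10 µM by stock and volumes)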 | 140,000 compounds, 0.16% hits | AID 898;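 active means inhibition of 50% or more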;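 further: controls were vehicle for no effect and minimum signal wells for full effect; inactives centre near -20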
RecA intein inh: inhibitors of M. tuberculosis RecA intein splicing; P9WHJ3; cell-free RecA intein splicing, fluorescence; inhibition, %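 (about 9 µM by stock and volumes)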; 290,000 compounds, 0.75% hits; in the data active means inhibition above about 30%; inconclusive means no clear call, values can overlap the other calls;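 further: 0% = vehicle wells and 100% = reference inhibitor control wells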
Target sequence (P9WHJ3 whole entry, looked up): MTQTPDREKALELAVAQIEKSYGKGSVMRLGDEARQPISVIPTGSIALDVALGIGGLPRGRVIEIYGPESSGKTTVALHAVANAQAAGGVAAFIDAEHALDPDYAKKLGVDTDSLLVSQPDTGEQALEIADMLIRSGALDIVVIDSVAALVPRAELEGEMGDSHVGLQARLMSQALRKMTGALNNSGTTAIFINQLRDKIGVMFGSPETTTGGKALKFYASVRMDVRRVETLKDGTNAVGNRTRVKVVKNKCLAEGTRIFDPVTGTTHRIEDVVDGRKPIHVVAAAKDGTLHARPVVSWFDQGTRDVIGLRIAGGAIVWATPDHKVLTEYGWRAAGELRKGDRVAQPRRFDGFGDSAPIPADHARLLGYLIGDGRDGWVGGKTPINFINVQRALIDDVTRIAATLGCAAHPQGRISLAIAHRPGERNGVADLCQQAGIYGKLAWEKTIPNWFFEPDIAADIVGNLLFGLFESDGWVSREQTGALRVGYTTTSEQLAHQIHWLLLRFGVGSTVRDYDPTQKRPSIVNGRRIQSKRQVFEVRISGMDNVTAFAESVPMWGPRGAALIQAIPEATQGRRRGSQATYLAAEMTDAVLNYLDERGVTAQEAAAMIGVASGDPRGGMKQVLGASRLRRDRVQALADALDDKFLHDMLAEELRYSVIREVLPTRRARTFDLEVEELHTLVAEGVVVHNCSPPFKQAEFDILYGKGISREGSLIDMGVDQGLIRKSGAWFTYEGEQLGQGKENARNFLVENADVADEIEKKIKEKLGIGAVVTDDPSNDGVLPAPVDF
Arbovirus anti: antivirals against arbovirus infection; arbovirus infection cell-based antiviral screen; inhibition, % at 10 µM; 200,000 compounds, 0.37% hits; AID 1251;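 active means inhibition from about 30%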;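 further: bluetongue infection of BSR cells; cell survival read as ATP light after 72 h; 0% = infected wells without compound and 100% = uninfected wells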
Mtb H37Rv: M. tuberculosis H37Rv growth inhibitors, H37Rv strain (AID 1626); M. tuberculosis H37Rv growth inhibition; higher % means a stronger effect; inhibition, % at 10 µM; hits with a dose series show IC50 in µM; 220,000 compounds, 0.95% hits;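 active means confirmed in a dose series; inconclusive means inhibition above 80% but not taken into the dose series; inactive means below 80% or under 30% at every dose of the series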;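 further: bacteria incubated seven days before Alamar blue readout; 0% = bacteria only wells and 100% = bacteria with antibiotic wells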
Arbovirus anti repeat: also measured in Arbovirus anti; calls as there; inhibition, %; measured here: 10K subset replicate screen; many hits read low in the repeat;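 first of two repeat runs on a subset; 0% = infected and 100% = uninfected wells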
The depositor's hits bear a star; ? = inconclusive; . = no result given. Some of the compounds tested; count on the stated rates, not on these rows.

SMILES	Mtb bLac sens	YopH PTP inh	RecA intein inh	Arbovirus anti	Mtb H37Rv	others
Cc1nc2cc(NC(=O)N3CCCC3)ccc2n1C	1	.	1.1	4	-2%
COc1ccccc1C(=O)Nc1nnc(CCc2ccccc2)s1	4	.	0.3	.	.
COC(=O)C1=NNC2(c3ccc(Cl)cc3)C(=O)N(c3ccc(Cl)cc3)C(=O)C12 (stereo not drawn)	-5	-3	-7.8	-2	-6%
CC1(c2ccc([N+](=O)[O-])cc2)Nc2ccccc2S1 (stereo not drawn)	7	.	2.1	.	.
CCOC(=O)c1ccccc1NC(=O)CN(c1ccc(OCC)cc1)S(C)(=O)=O	.	.	-1.5	-13	-5%
O=C(OCc1ccc(Cl)c(Cl)c1)c1cccnc1Cl	2	.	2.2	.	.
O=C(c1cccc(S(=O)(=O)Nc2ccc(Br)cc2)c1)N1CCCC1	3	.	0.2	.	.
CC1(C)CC2CC(C)(CN2c2ncnc3ccc(Br)cc23)C1 (stereo not drawn)	13	-1	20	-35	19%
CSc1ccccc1OCc1cc(C(=O)NCc2csc(C(C)C)n2)no1	5	.	-0.6	.	.
Cc1ccccc1C(O)c1ccccn1 (stereo not drawn)	-9	-32	-1.7	0	8%
O=C(COC(=O)c1cccnc1Cl)c1ccc(F)cc1	6	.	.	4	3%
Cc1ccc(C(=O)NNc2cc(=O)n(C)c(=O)n2C)cc1C	-5	-20	1.4	-12	-5%
COc1ccc(CCNC(=O)CSc2nnnn2Cc2ccc3c(c2)OCO3)cc1OC	-18	-20	0.7	4	-8%
CCCn1c(SCC(=O)NCc2ccco2)nnc1-c1ccncc1	-7	.	-0.9	7	-2%
COC(CNC(=O)c1ccc2c(=O)n(Cc3ccc4c(c3)OCO4)c(=S)[nH]c2c1)OC	5	.	-5.0	.	.
CC(NCc1ccncc1)C12CC3CC(CC(C3)C1)C2 (stereo not drawn)	-6	.	-1.1	-17	-6%
O=C(O)CCC(=O)Nc1sc2c(c1C(=O)Nc1ccccc1)CCCCC2	1	.	.	4	-8%
COC(=O)c1ccc(NC(=O)CSC2=Nc3ccccc3C3CC=NN23)cc1 (stereo not drawn)	8	-8	1.0	0	4%
Cc1ccc(CCNc2ccccc2C)cn1	-10	-28	-1.1	-7	-5%
CCOC(=O)CSc1nc(N)cc(=O)[nH]1	-17	-37	-9.7	2	-7%
Cc1ccc(NC(=O)CN(C)C(=O)COC(=O)C2=COCCO2)cc1	4	.	-0.5	.	.
C[C@H]1O[C@@H](n2cc(F)c(=O)[nH]c2=O)[C@H](O)[C@@H]1O	60	.	1.6	.	.
CCOC(=O)c1[nH]c(C(=O)O)c(OC(=O)CC)c1C	2	.	-0.3	.	-6%
CC(C)(C)NC(=O)NC(=O)CN1CCN(S(=O)(=O)c2ccccc2)CC1	1	.	-1.3	.	-1%
CCOc1ccc(C(=O)/C=C/c2cn(CN3CCN(C)CC3)c3ccccc23)cc1	99	-10	.	-28	64%
Cc1ccc(S(=O)(=O)CC(=O)Nc2ccc(Cl)cn2)cc1	1	.	1.6	3	-1%
O=C1CCC/C(=N/NC(=O)c2ccc(NS(=O)(=O)c3cccs3)cc2)C1	-1	.	-6.3	8	0%
C[C@@H](NC(=O)c1nc[nH]c1C(=O)NCC(=O)OCc1ccccc1)c1ccccc1	34	.	4.9	.	.
CCOc1cc(NC(=O)c2ccccn2)c(OCC)cc1NC(=O)CC(C)C	.	-18	4.5	-2	2%
O=C(NCC1CCCO1)c1ccc2c(c1)OCO2 (stereo not drawn)	-8	-23	-2.7	6	1%	Arbovirus anti repeat=1
CCC1CCCCN1C(=O)Cn1c(C(=O)OC)cc2ccsc21 (stereo not drawn)	-4	-47	1.5	-4	-2%
Cc1nn(Cc2ccc(C(=O)O)o2)c(C)c1[N+](=O)[O-]	-7	.	-1.8	-1	-10%
CCN(CC)CCCOC(=O)C1(c2ccccc2)CCCC1	-3	8	5.5	-16	-1%
Cc1nn(Cc2ccc([N+](=O)[O-])cc2)c(=O)n1-c1c(F)cccc1F	3	-40	0.0	1	-4%
O=C(NCC1CCCN(Cc2ccccc2F)C1)c1cccc(C(F)(F)F)c1 (stereo not drawn)	-11	.	0.4	-8	3%
Nc1cc(N)nc(SCC(=O)Nc2ccccc2)n1	3	3	.	0	0%
O=C(c1cc(F)ccc1F)C1CCCN(C(=O)c2ccco2)C1 (stereo not drawn)	-11	.	-3.0	1	8%
Cc1c(Cl)cccc1NC(=S)NCc1cccn1C	-2	-23	-0.5	6	0%
Cc1ccc(-c2cc3cccc[n+]3cc2-c2ccc(C)cc2)cc1	10	-12	-0.2	-11	18%
Cn1nnc(NC(=S)NC(=O)c2cccc3c(Br)cccc23)n1	0	.	-2.1	.	.
C=CCn1cc(CN2CCC(C(=O)Nc3cccc(-c4cccc(F)c4)c3)CC2)c(C)n1	?	.	4.2	.	.
O=C(Cn1ncc2c(=O)oc3ccccc3c21)NCc1cccnc1	12	.	-3.7	6	1%
O=C(NC1CC2CCCC(C1)N2C(=O)NC1CCCCC1)c1ccccc1 (stereo not drawn)	-1	-30	3.0	2	-15%
COC(=O)CC/C(C)=N\Nc1ccc([N+](=O)[O-])cc1[N+](=O)[O-]	2	-37	-0.9	4	1%
CC1(C)CC(=O)C2=C(C1)N(Cc1ccco1)C(=O)C2(O)C(F)(F)F (stereo not drawn)	9	-30	-0.6	6	0%
O=c1ccn(Cc2ccccc2)cc1	2	.	0.8	.	-13%
C=CCNc1nnc(SC2CC(=O)N(c3ccc(OC)cc3)C2=O)s1 (stereo not drawn)	9	-8	-1.5	6	-6%
Cc1nc2c(oc3ccc(Cl)cc32)c(=O)[nH]1	-7	.	-7.5	.	-2%

An excerpt from above in order of heavy-atom count, falling.
SMILES	Mtb bLac sens	YopH PTP inh	RecA intein inh	Arbovirus anti	Mtb H37Rv	others
O=C(NC1CC2CCCC(C1)N2C(=O)NC1CCCCC1)c1ccccc1 (stereo not drawn)	-1	-30	3.0	2	-15%
O=C(Cn1ncc2c(=O)oc3ccccc3c21)NCc1cccnc1	12	.	-3.7	6	1%
CC1(C)CC(=O)C2=C(C1)N(Cc1ccco1)C(=O)C2(O)C(F)(F)F (stereo not drawn)	9	-30	-0.6	6	0%
O=C(c1cc(F)ccc1F)C1CCCN(C(=O)c2ccco2)C1 (stereo not drawn)	-11	.	-3.0	1	8%
Cc1c(Cl)cccc1NC(=S)NCc1cccn1C	-2	-23	-0.5	6	0%
Cc1nc2c(oc3ccc(Cl)cc32)c(=O)[nH]1	-7	.	-7.5	.	-2%
O=c1ccn(Cc2ccccc2)cc1	2	.	0.8	.	-13%

Next structures:
SMILES	Mtb bLac sens	YopH PTP inh	RecA intein inh	Arbovirus anti	Mtb H37Rv	others
Cc1ccc(NC(=O)CCS(=O)(=O)c2ccc(Br)cc2)nc1	-14	-9	-1.9	10	6%
Cc1ccc(-c2nc3ncccc3o2)cc1NC(=O)Cc1ccc(Cl)cc1	-7	-5	1.6	-1	1%	Arbovirus anti repeat=-13
CCOc1ccc(S(=O)(=O)NCC2CCCO2)cc1 (stereo not drawn)	-5	18	-3.9	0	11%
CSCCC(NC(=O)COc1ccccc1)C(=O)OC(C)C(=O)Nc1ccccc1C (stereo not drawn)	2	.	-0.2	.	.
CCC(C)NC(=O)CC(NS(=O)(=O)c1ccc(C)cc1)c1ccc(OC)cc1 (stereo not drawn)	16	-11	-1.8	2	3%
CCOC1(NC(=O)c2ccccc2)C(C)=CC(=O)C=C1C	0	-1	-2.1	-4	-4%
COc1ccc(/C=C/C(=O)c2c(O)c(OC)c3occc3c2OC)cc1	.	.	0.7	-2	.
CC(C(=O)c1ccccc1)n1cnc2ccccc2c1=O (stereo not drawn)	?	-8	-1.4	0	-10%
CCCCOc1cccc(C(=O)O)c1	-4	-13	0.3	1	-7%
CNC(=O)c1oc(-c2ccc(Cl)cc2)nc1C	0	.	-0.7	3	4%
CCSc1nc(NCCN(C)C)c2c3c(sc2n1)COC(C)(CC)C3 (stereo not drawn)	-7	.	0.9	.	-12%
Cc1cc(C)cc(C(=O)NCC(=O)N2CCN(C(c3ccccc3)c3ccccc3)CC2)c1	2	.	14	.	.

In the list so far, these contain an aryl methoxy group.
SMILES	Mtb bLac sens	YopH PTP inh	RecA intein inh	Arbovirus anti	Mtb H37Rv	others
COc1ccccc1C(=O)Nc1nnc(CCc2ccccc2)s1	4	.	0.3	.	.
COc1ccc(CCNC(=O)CSc2nnnn2Cc2ccc3c(c2)OCO3)cc1OC	-18	-20	0.7	4	-8%
C=CCNc1nnc(SC2CC(=O)N(c3ccc(OC)cc3)C2=O)s1 (stereo not drawn)	9	-8	-1.5	6	-6%
CCC(C)NC(=O)CC(NS(=O)(=O)c1ccc(C)cc1)c1ccc(OC)cc1 (stereo not drawn)	16	-11	-1.8	2	3%
COc1ccc(/C=C/C(=O)c2c(O)c(OC)c3occc3c2OC)cc1	.	.	0.7	-2	.

Not a retest: entries from further up.
SMILES	Mtb bLac sens	YopH PTP inh	RecA intein inh	Arbovirus anti	Mtb H37Rv	others
CCSc1nc(NCCN(C)C)c2c3c(sc2n1)COC(C)(CC)C3 (stereo not drawn)	-7	.	0.9	.	-12%
Cc1cc(C)cc(C(=O)NCC(=O)N2CCN(C(c3ccccc3)c3ccccc3)CC2)c1	2	.	14	.	.

Carrying on:
SMILES	Mtb bLac sens	YopH PTP inh	RecA intein inh	Arbovirus anti	Mtb H37Rv	others
CCC(=O)Nc1nc(CC(=O)Nc2ccccc2)cs1	-3	-42	0.8	11	-14%
Cc1nn(C(=O)CNC(=O)c2ccccc2)c(C)c1C	-2	.	1.5	5	-1%
CCNS(=O)(=O)c1cc(S(C)(=O)=O)ccc1Cl	0	-19	-1.8	-1	-2%
CCN(CC)C1CC(=O)N(c2cccc(C)c2)C1=O (stereo not drawn)	-3	-32	2.0	1	-13%	Arbovirus anti repeat=4
COc1cccc(NC(=O)CSc2nnc(-c3cc(-c4ccccn4)nc4ccccc34)o2)c1	-7	-1	3.0	-10	5%
Cc1cccc(C(=O)NC2CCN(C(=O)Nc3ccc(F)cc3)CC2)c1	1	.	1.7	.	.
COc1ccccc1/C=C1\SC(=S)N(N2C(=O)CCCC2=O)C1=O	6	.	-2.1	-5	6%
Cc1ccc(-c2cc(-c3ccccc3O)nc(N/N=C/c3cccnc3)n2)cc1	0	-11	-4.0	-24	6%
Cc1onc(-c2c(F)cccc2Cl)c1C(=O)OCC(=O)NC1CC1	-3	.	-0.9	15	8%
Cc1cccc(NC(=O)c2cnn3ccccc23)c1C	5	.	1.6	.	3%
C=CCN=C1CCCc2c1[nH]c1ccc(C)cc21	4	.	0.5	-5	5%
O=C1CC(c2ccccc2F)C2=C(COC2=O)N1 (stereo not drawn)	-3	.	-1.4	15	5%
CCCOc1ccc(-c2cnc(SCC(N)=O)nc2N)cc1	99	-14	-14	5	48%
CS(=O)(=O)Nc1ccc(C(=O)NC2CCCC2)cc1	-14	-3	2.3	-2	-1%
Clc1ccc2c(NCc3cccs3)ncnc2c1	-3	.	-2.4	.	.
COc1ccc(CNC(=O)[C@H](C)NC(=O)C2CC(=O)N(c3ccc(OC)cc3)C2)cc1 (stereo partly drawn)	3	.	0.4	.	.
